From PubChem
NPR1 antag: Natriuretic polypeptide receptor (hNpr1) antagonism - Primary qHTS | Atrial natriuretic peptide receptor 1 (Homo sapiens), P16066 | HEK293 hNpr1 GloSensor cGMP, ANP-stimulated luminescence | Potency, µM (titrated, usually from 46.3 µM), for the others: top-dose activity change, negative = inhibition, actives largely listed as inhibitors | 76,000 compounds, 1.6% hits | AID 1347048, 2019; active = well fitted inhibition curve with a large enough effect; inconclusive = small, poorly fitted or top-dose-only effect; inactive = no such curve, though single readings can be large or run the other way;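 note: nearly all actives have a fitted effect of over 60% in size; nearly all hits also lower the signal before the agonist is added; a reference antagonist and vehicle were the controls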
Target sequence (P16066 whole entry, looked up): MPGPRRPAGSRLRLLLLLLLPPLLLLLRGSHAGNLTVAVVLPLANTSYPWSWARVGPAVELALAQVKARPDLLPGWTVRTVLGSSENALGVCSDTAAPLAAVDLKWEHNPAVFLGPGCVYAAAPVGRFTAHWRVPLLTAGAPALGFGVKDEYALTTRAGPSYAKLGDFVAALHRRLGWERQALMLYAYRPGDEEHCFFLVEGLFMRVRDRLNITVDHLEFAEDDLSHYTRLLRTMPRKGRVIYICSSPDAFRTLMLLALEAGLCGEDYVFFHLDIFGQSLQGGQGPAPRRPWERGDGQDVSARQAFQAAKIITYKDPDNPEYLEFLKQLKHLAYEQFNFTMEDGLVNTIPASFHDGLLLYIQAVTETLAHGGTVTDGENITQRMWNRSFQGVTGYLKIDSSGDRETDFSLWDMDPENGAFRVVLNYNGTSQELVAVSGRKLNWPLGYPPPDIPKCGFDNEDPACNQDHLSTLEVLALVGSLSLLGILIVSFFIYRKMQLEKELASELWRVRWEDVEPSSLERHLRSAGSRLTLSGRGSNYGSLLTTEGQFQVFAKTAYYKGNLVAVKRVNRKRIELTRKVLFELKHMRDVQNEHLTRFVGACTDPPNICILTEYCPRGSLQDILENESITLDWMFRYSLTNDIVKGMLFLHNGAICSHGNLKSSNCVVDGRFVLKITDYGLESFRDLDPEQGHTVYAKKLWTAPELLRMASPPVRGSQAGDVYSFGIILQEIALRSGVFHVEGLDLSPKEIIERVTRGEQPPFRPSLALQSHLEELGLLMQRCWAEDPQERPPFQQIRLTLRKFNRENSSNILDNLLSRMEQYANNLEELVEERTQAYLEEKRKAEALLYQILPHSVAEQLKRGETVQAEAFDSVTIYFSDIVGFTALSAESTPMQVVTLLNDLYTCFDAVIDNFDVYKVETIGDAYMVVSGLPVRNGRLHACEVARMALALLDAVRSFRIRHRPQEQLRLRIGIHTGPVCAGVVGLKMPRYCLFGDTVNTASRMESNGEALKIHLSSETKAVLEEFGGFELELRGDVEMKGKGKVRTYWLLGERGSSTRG
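HEK293 cells stably expressing human Npr1 and cGMP GloSensor pGS-40F, loaded 2 h with 2% GloSensor reagent, given compound 30 min at room temperature. Luminescence read before and 20 min after 0.1 nM hNppA.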
Active calls of the source: *; ? = inconclusive; [ ] = remark or other dose. % is set by controls: 0 for no effect and ±100 for the full control effect; potency is the fitted concentration of half-maximal effect. Only part of the results is shown, so the mix of outcomes need not match the whole.

| NPR1 antag | Compound |
| --- | --- |
| -20% | CN1[C@@H](CCC(=O)N2CCN(c3ccccc3)CC2)CNC(=O)[C@@H]2[C@H]1CCN2Cc1cccc(Cl)c1 |
| 12% | COc1cccc(-c2cc(C(=O)N3CCC(c4nn(C)c(=O)n4C(C)C)CC3)[nH]n2)c1 |
| 3%[70.6 µM] | C[C@@H](NC(=O)C1CCCC1)c1onc(-c2ccc(F)cc2)c1C(=O)O |
| ? | O=c1c2nc(Nc3cccc(F)c3)ccc2ncn1-c1cccnc1 |
| -2% | Cc1ccc2[nH]c(CN(Cc3cnn(C)c3)C3CC3)cc(=O)c2c1 |
| -23% | O=C(c1ccoc1)N1CCc2onc(C(c3ccccc3)c3ccccc3)c2C1 |
| 4% | CC(C)N1C(=O)C2(CCCCC2)C1C(=O)N1CCCC1 (configuration not stated) |
| ? | Cc1ccc(S(=O)(=O)N2CCCC(CNC(=O)c3cccs3)C2)cc1 (configuration not stated) |
| 6% | Cc1nc(-c2cn(C3CCCN(C(=O)COc4ccccc4)C3)nn2)no1 (configuration not stated) |
| -2% | O=C(CC1CCN(C(=O)c2ccccc2)C1)NC1CC1 (configuration not stated) |
| 3% | CS(=O)(=O)N1CCCN(C(=O)NCc2ccccc2)CCNC(=O)CC1c1ccccc1 (configuration not stated) |
| 2% | CN(CC1CCOCC1)C(=O)c1ccc(C(F)(F)F)cc1 |
| 0% | CN(Cc1cccnc1)c1nc2c(c(=O)[nH]1)CCN(Cc1cc(Cl)ccc1F)CC2 |
| 0% | Cc1cc2nc3n(c(=O)c2n1CC(=O)Nc1ccc(Cl)cc1F)CCC3 |
| 8% | Cc1nc([C@H]2CCN(Cc3ccc(F)cc3F)C[C@H]2NC(=O)C2CCOCC2)n[nH]1 |
| -8%[70.6 µM] | CNC(=O)[C@@H](Cc1ccccc1)N1CCC[C@H]1C(=O)NC1CC1 |
| -12%[70.6 µM] | COc1cccc(CN2CCCC3(COc4ccccc4C(=O)N3)C2)c1 (configuration not stated) |
| 3%[70.6 µM] | Cc1onc(-c2cnn(C)c2NCc2ccccc2)c1C(=O)NCCc1cccnc1 |
| 0%[70.6 µM] | COc1cc(CN2CCC(C)(NC(C)=O)CC2)cc(-c2ccccc2)c1 |
| 2% | CCNC(=O)N1CC(N(CC)C2CCOCC2)C1 |
| 0% | O=S(=O)(c1ccc(-c2ccno2)s1)N1CCC2(CCNCC2)C1 |
| -21%[70.6 µM] | COc1ccc(-c2[nH]nc3ncc(-c4cncnc4)nc23)cc1F |
| -1%[70.6 µM] | Cc1ccc(CNC(=O)c2ccc3nccn3c2)o1 |
| 8.9µM* | O=C(CN1CCCc2nc(-c3ccncc3)ncc2C1=O)N1CCc2ccccc2C1 |
| 2% | O=C(N[C@@H]1CN[C@H](CO)C1)c1ccncc1 |
| -21%[70.6 µM] | CCNC(=O)N[C@H]1CO[C@H]2[C@@H]1OC[C@@H]2n1nnnc1Oc1cccc(N(C)C)c1 |
| ? | Cc1cc(Cl)ccc1OCCN1CCN(C(=O)[C@H]2CCC[C@H](O)C2)CC1 |
| 6%[70.6 µM] | Cc1ccc(-c2nnc3ccc(N4CCCC4)nn23)nc1 |
| 1% | Cc1cc(C)n(-c2ccc(C(=O)N[C@H]3C[C@H]4C(=O)NCC(=O)N4C3)cc2)n1 |
| -18% | CCCCc1nc2cc(C(=O)N3CCCC3c3cc(C(C)C)on3)ccc2o1 (configuration not stated) |
| 2% | CN(C)Cc1nnc(C2CCN(C(=O)c3n[nH]c(=O)c4ccccc34)CC2)n1C |
| 12% | COc1ccccc1[C@@H]1CN(C(=O)Cc2nonc2C)C[C@H]1C(=O)O |
| 4% | CC[C@H]1CN(S(=O)(=O)c2ccc(OC)cc2)CC[C@H]1CC(=O)NCc1cccc2ccccc12 |
| 5%[70.6 µM] | COCCNC(=O)C[C@@H]1O[C@H](CNS(=O)(=O)c2ccc(C)cc2)[C@@H](O)[C@H]1O |
| -27% | Cn1nc(C(=O)N2CCCN(c3cc(-c4ccc(Cl)cc4)[nH]n3)CC2)c2ccccc21 |
| 0% | COCCNC(=O)C1COC2(CCN(C(=O)c3ccc(F)cc3)CC2)N1C(=O)c1ccc(F)cc1 (configuration not stated) |
| -17% | Cc1ccc(C2Cn3nnc(-c4noc(-c5sccc5C)n4)c3CO2)cc1 (configuration not stated) |
| -2% | COc1ccc(CNC(=O)CC[C@H]2CNC(=O)[C@@H]3[C@@H](CCN3Cc3nc4ccccc4n3C)N2C)cc1 |
| 5% | O=C(Nc1ccccc1)Nc1ccc([C@@H](O)[C@H]2COCC(=O)N2Cc2ccc(F)cc2)cc1 |
| -2% | CC(=O)N1c2ccccc2CC1c1nc(C(C)C)no1 (configuration not stated) |
| 16µM* | Cc1cccc(CN2CCCn3nc(C)c(-c4ccccc4-c4ccccc4)c32)n1 |
| 1% | CCN1CC2(CCN(C(=O)c3ccc(NS(=O)(=O)CC)cc3)CC2)CC1=O |
| 3% | CCOc1ccccc1C1NC(=O)N(CC(=O)Nc2ccc(F)cc2F)C2=C1C(=O)OC2 (configuration not stated) |
| -3%[70.6 µM] | COCc1cc(CC2(NCc3ccccc3F)COC2)no1 |
| 3% | COc1ccccc1NC(=O)N1CCCC(Cn2c(C3CC3)nc3cccnc32)C1 (configuration not stated) |
| -18%[70.6 µM] | Cc1ccccc1-c1cc2c(ccn2C)c(C(=O)NCCc2cnc[nH]2)n1 |
| 1%[70.6 µM] | c1ccc(N2CCN(Cc3cc(CC4(NC5CCOCC5)COC4)no3)CC2)cc1 |
| -11% | O=C(Cn1c(=O)c2c(n1Cc1ccccc1)CN(Cc1ccccc1)CC2)NCc1cccc(Cl)c1 |
| -3% | Cc1nn(C)c(C)c1-c1nc2cc(S(=O)(=O)N3CCCC3)ccc2n1C |
| 7% | O=C(NCCC1CCN(C(=O)Nc2ccccc2F)CC1)c1ccccc1 |
| 2% | CCNC(=O)N1CCCC(Cc2ncc(C)n2C(C)C)C1 (configuration not stated) |
| -1% | Cc1cccc(-n2nc(-c3c(C)nc4scc(CC(=O)NC(C)C(C)C)n4c3=O)cc2C)c1 (configuration not stated) |
| ? | COc1ccc(NC(=O)N2CCCC(c3noc(COc4ccccc4)n3)C2)c(C)c1 (configuration not stated) |
| -19% | CCOC(=O)C1=C(C)N=C2SC=C(CC(=O)N3CCCC3)N2C1c1ccc(Cl)cc1 (configuration not stated) |
| -12% | CCN(CC)Cc1ccc2c(c1)CN(C(=O)c1cncc(Br)c1)CCO2 |
| 4% | CCOc1ccccc1CNC(=O)c1c(OC)cc(=O)n2c1CCCC2 |
| -1%[70.6 µM] | O[C@@H]1C[C@@H](c2nc(-c3ccccn3)no2)N(Cc2ccccc2)C1 |
| -1%[70.6 µM] | COc1ccc(CN2C[C@H](O)C[C@H]2c2nc(Cc3ccccc3)no2)cc1 |
| 3% | COCc1ccc(C(=O)N2CC[C@](C)(O)[C@H](C)C2)s1 |
| 7% | Cc1cnc(C(=O)N[C@@H]2CCC[C@@H]2C(=O)NCCc2cccs2)cn1 |

Other compounds follow:
| NPR1 antag | Compound |
| --- | --- |
| 3% | COCC(=O)N(C1CCOCC1)C1CCN(S(=O)(=O)c2cccnc2)CC1 |
| -3% | CSc1cccc(NC(=O)O[C@@H]2CC[C@]3(C)C(CC[C@@H](O)[C@H]3CC(=O)N3CCC[C@H]3CO)[C@]2(C)CO)c1 (some centres not stated) |
| 3% | O=C(c1ccco1)N1CCC2(CCCCO2)CC1 |
| 2% | Cc1nc2cccnc2n1CC1CCCN(S(=O)(=O)Cc2ccccc2)C1 (configuration not stated) |
| 3% | COc1ccccc1CNC[C@H]1O[C@H](Cc2cc(CN(C)Cc3ccccc3)on2)CC[C@@H]1O |
| 4% | COCc1cc(=O)n(CC(=O)NCc2ccc(C)cc2)c(N2CCOCC2)n1 |
| 1% | CC(C)c1ccc(CC(=O)N2CCCc3ncc(C(=O)NCCCn4ccnc4)cc32)cc1 |
| -20% | CCN(CC)C(=O)CCc1c(C)nn(-c2ccc(F)cc2)c1Oc1ccccc1 |
| -5% | CN1c2cc(C(=O)Nc3ccccc3)ccc2C(=O)N2CCCCCC21 (configuration not stated) |
| -2% | O=C(NC[C@H]1O[C@@H](CC(=O)N2CCN(c3ccc(F)cc3)CC2)[C@H](O)[C@@H]1O)c1ccco1 |
| -1% | Cc1nc2ncccn2c1C(=O)N1CCC2(CCCN(C)C2=O)C1 (configuration not stated) |
| -12% | COc1ccc(NC(=O)Nc2ccc(C)n(CC(=O)Nc3cccc(C)c3)c2=O)cc1 |
| -4% | Cc1noc(C)c1CC(=O)NC1CCCc2c1[nH]c1ccc(F)cc21 (configuration not stated) |
| 7% | COCCCNc1ccc(C(=O)N2CCC(CN3CCCC3=O)CC2)cn1 |
| 3% | CCn1ncc(N2CCC(NC(=O)Cc3ccccc3F)CC2)cc1=O |
| 6% | COCCCN1CC2(CCN(Cc3ccc4c(c3)CC(C)O4)CC2)CC1=O (configuration not stated) |
| ? | O=C1COc2ccc(NCc3cccs3)nc2CN1Cc1ccc(C(F)(F)F)cc1 |
| 3% | O=C(NCc1cccc2[nH]ccc12)C1CCCN(C2CCN(C(=O)C3CC3)CC2)C1 (configuration not stated) |
| ? | O=C(c1ccc(Oc2ccc(CN3CCCC3)cc2F)nc1)N1CCCCC1 |
| 3%[70.6 µM] | CC(C)CN1C(=O)COC[C@@H]1[C@H](O)c1ccc(NC(=O)c2ccc(C#N)cc2)cc1 |
| 8% | COc1cc(Cl)c(C)cc1NC(=O)Cn1cccc1-c1nc(-c2ccccc2)no1 |
| 0% | O=C(CC1CCN(C(=O)C2CC2)C1)NCc1ccccc1 (configuration not stated) |
| -2% | O=C(CCc1c[nH]c2ccccc12)NC1CCc2nn(CC3CC3)c(=O)n2CC1 (configuration not stated) |
| 1% | COc1cccc(-c2nc(NCc3cccnc3)ncc2C(=O)O)c1 |
| -6% | Cc1ccc(C(=O)N2CCC[C@H]2c2nc(-c3ccccc3Cl)no2)cc1 |
| -20% | Cc1nc(N2CCCCC2)n(CC(=O)Nc2cccc(C(F)(F)F)c2)c(=O)c1C |
| 0%[70.6 µM] | COC(=O)N1CCCC(c2nn(-c3ccccc3)c(=O)[nH]2)C1 (configuration not stated) |
| -21% | COc1ccc(C(=O)NC2CCN(c3cc(C(F)(F)F)ncn3)CC2)c(C)c1 |
| 4% | CC(C)Cc1nc(CN2CCn3nc(C(O)c4ccnn4C)cc3C2)no1 (configuration not stated) |
| 4% | Cc1cnn(C2(C(=O)O)CCN(S(=O)(=O)c3cnn(C)c3)CC2)c1 |
| -18% | Cc1ccc(S(=O)(=O)N2CCCC(Cn3c(C)nc4cccnc43)C2)cc1F (configuration not stated) |
| -1%[70.6 µM] | COc1ccccc1-c1[nH]nc2ncc(C(=O)Nc3cc(C)nn3C)nc12 |
| ? | Fc1ccc(CNC[C@H]2Cn3c(-c4ccc(Cl)cc4)cnc3CO2)cc1 |
| 4% | CNC(=O)[C@H]1C[C@H](Oc2ccccc2)CN1S(=O)(=O)c1ccccc1 |
| 16% | COc1ccc(-n2nc(C3CCN([S+](=O)([O-])c4cccc(C(F)(F)F)c4)CC3)[nH]c2=O)cc1 |
| -4% | Cc1cc(Cl)ccc1S(=O)(=O)N1CCCC1c1nncn1Cc1ccncc1 (configuration not stated) |
| -3% | CCn1nc(C)c(CN(CCOC)C(=O)C2COc3ccccc3C2)c1C (configuration not stated) |
| 5% | CCOc1ccc(CCCC(=O)N[C@@H]2CCOC[C@H]2OC)cc1C |
| 3% | O=C(c1cccnc1OC1CCN(S(=O)(=O)c2ccccc2)C1)N1CCCCC1 (configuration not stated) |
| -2% | CCc1nc2cc(N3CCCC(C(=O)NCc4cccnc4)C3)cnc2nc1CC (configuration not stated) |
| 5% | COCC1CN(C(C)=O)CC12CCN(C(=O)NCc1ccco1)CC2 (configuration not stated) |
| -2% | CCc1nc(-c2c3n(c(=O)n(CC(=O)NCc4ccc(OC)cc4)c2=O)CCCC3)no1 |
| 17%[70.6 µM] | O=C1NC2(CCN(C(=O)c3cccnc3)C2)N=C1c1ccccn1 (configuration not stated) |
| 1%[70.6 µM] | CN1C(=O)[C@@H]2C[C@@H](CN2Cc2nccs2)Oc2ccccc21 |
| 0% | Cc1cc(C)n(CCc2c(-c3ccccc3)ncn2CCCc2cccnc2)n1 |
| 5% | CNC(=O)[C@@H]1C[C@H](Oc2cccnc2)CN1C(=O)c1cn[nH]c1-c1ccc(OC)cc1 |
| 4%[70.6 µM] | CC(C)(C)CC(=O)Nc1ccc([C@H]2OCC(=O)N(CCN)[C@@H]2CO)cc1 |
| 2% | Cc1ccccc1NC(=O)N1CCC(CCNC(=O)c2ccnn2C)CC1 |
| 5% | Cc1ccc(S(=O)(=O)Nc2ccc(C)n(CC(=O)Nc3ccc(C)cc3C)c2=O)cc1 |
| 9% | CS(=O)(=O)N1CCC(C2CCN(C(=O)Cc3ccccc3F)C2)CC1 (configuration not stated) |
| -8% | CC(C)Oc1ccc(C(=O)N2CCCN(S(C)(=O)=O)c3ccccc32)cc1 |

Structures above that bear a hit mark in NPR1 antag:
| NPR1 antag | Compound |
| --- | --- |
| 8.9µM* | O=C(CN1CCCc2nc(-c3ccncc3)ncc2C1=O)N1CCc2ccccc2C1 |
| 16µM* | Cc1cccc(CN2CCCn3nc(C)c(-c4ccccc4-c4ccccc4)c32)n1 |

4 of the compounds above, with tabs:
SMILES	NPR1 antag
CC(C)(C)CC(=O)Nc1ccc([C@H]2OCC(=O)N(CCN)[C@@H]2CO)cc1	4%[70.6 µM]
Cc1ccccc1NC(=O)N1CCC(CCNC(=O)c2ccnn2C)CC1	2%
Cc1ccc(S(=O)(=O)Nc2ccc(C)n(CC(=O)Nc3ccc(C)cc3C)c2=O)cc1	5%
CS(=O)(=O)N1CCC(C2CCN(C(=O)Cc3ccccc3F)C2)CC1 (configuration not stated)	9%
